Screening data deposited in PubChem by several laboratories.
MT1-MMP promoter = MT1-MMP gene expression reporter suppression – cell-based, luciferase reporter, luminescence (AID 618) | calls from a first round at 10 µM; hits with a dose series show EC50 in µM | MT1-MMP promoter luciferase reporter cells, luminescence | 0.62% of 87,000 active;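 active = over half of the reporter light lost at 10 µM or EC50 under 50 µM; inactive = the rest and hits that failed the dose series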;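 also: actives suppress MT1-MMP promoter-driven transcription so potencies describe inhibitors; HT1080 fibrosarcoma cells; overnight exposure; toxic or luciferase-blocking compounds were not removed from the actives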
WNV protease inh = inhibitors of West Nile virus NS2B-NS3 protease; z-score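 (tested at a level between 10 and 100 µM)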; WNV NS2B-NS3 protease, fluorogenic substrate Ex360/Em465; hits give low values; 0.18% of 65,000 active; P06935;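 active = z-score at -3 or under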;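 also: score is relative to mean and spread of the compound wells of a plate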
Target sequence (P06935 1371-1501 limits assumed): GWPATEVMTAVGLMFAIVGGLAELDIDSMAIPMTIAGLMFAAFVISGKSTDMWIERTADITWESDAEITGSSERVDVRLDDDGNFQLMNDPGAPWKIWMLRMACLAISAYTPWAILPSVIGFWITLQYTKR
Target sequence (P06935 1502-1679 limits assumed): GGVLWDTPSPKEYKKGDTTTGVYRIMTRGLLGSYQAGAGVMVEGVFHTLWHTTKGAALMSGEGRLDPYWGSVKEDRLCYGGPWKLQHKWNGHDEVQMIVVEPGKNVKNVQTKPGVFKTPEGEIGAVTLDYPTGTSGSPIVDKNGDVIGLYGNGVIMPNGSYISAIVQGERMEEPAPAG
Hsc70 ATP site = small molecules displacing fluorescent ligand from Hsc70 – biochemical, fluorescence polarization, primary screen (AID 568); Hsc70 fluorescence polarization, probe displacement; higher % means a stronger effect; strong numbers were not always called active; displacement, % at 20 µM, or IC50 in µM where a hit was titrated; 83,000 tested, under 10 active;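 active = displacement above 50% without optical interference and an IC50 on retest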;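 also: ATPase domain with a fluorescein-tagged ATP probe; 0% = vehicle and 100% = excess ADP; read after one hour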
Active calls of the source: *; i = inactive; nt = not tested or not shown.

canonical_smiles	MT1-MMP promoter	WNV protease inh	Hsc70 ATP site
Cc1cc(C#N)c2ccccc2n1	i	0.63	5.4%
COc1ccc2[nH]cc(C(=O)CN3CCC(C)CC3)c2c1	i	-2.3	-1.1%
CCOC(=O)c1c(C)oc2cc(Br)c(O)c(Br)c12	i	1.1	-1.0%
COC(=O)CC1C(=O)NCCN1C(=O)Nc1ccccc1 (centres undefined)	i	1	-2.2%
CCOC(=O)C(C)(C)Sc1nc2c(cnn2-c2ccc(Cl)cc2)c(=O)[nH]1	i	0.13	1.8%
CCOC(=O)C1=C(C)NC(C)=C(C(=O)OCC)C1C(=O)OC1CCOC1=O (centres undefined)	i	0.22	-2.0%
Cn1c(=O)c2c(nc(CN3CCC(C(N)=O)CC3)n2Cc2ccccc2F)n(C)c1=O	i	-0.0053	3.5%
Cc1nn(Cc2ccccc2Cl)c(C)c1NC(=O)c1cc(-c2ccc(F)cc2)on1	i	0.83	-7.7%
CC1CCCN(C/C(O)=C(\C#N)c2nc3ccccc3[nH]2)C1 (centres undefined)	i	-0.98	0.2%
COC(=O)c1ccc(NC(=O)N2CCOCC2)cc1	i	0.00063	0.6%
COCCn1c(N)c(NCc2ccccc2)c(=O)n(CC(=O)Nc2cc(C)ccc2C)c1=O	i	0.91	1.3%
COc1ccccc1-c1cn[nH]c(=S)n1	i	0.04	0.5%
Cc1cc(C(C)(C)C)cc(S(=O)(=O)Nc2cccc(C(=O)O)c2)c1C	i	nt	-0.4%
Cc1ccc(CN(C)C(=O)c2ccccc2Oc2ccccc2)o1	i	0.29	5.0%
COC(=O)C(C)n1cnc2c(cnn2-c2ccc(Cl)cc2)c1=O (centres undefined)	i	0.36	-3.3%
COc1ccccc1-n1c(SCC(N)=O)nnc1-c1ccccc1	i	0.33	-0.7%
CCOc1ccc(NC(=O)c2ccccc2NC(=O)CN(C)CC(=O)Nc2ccc(C)cc2)cc1	i	nt	1.6%
O=C1c2ccc(-c3nc4ccccc4o3)cc2C(=O)N1Cc1cccnc1	i	0.71	6.9%
Oc1ccc(Cl)cc1-c1cc(-c2cccc(Br)c2)n[nH]1	i	nt	5.2%
CC(=O)NC12CC3CC(C1)CC(C(=O)Nc1nccs1)(C3)C2	i	-0.92	0.0%
O=S1(=O)N=C(Nc2nc3c(s2)CCCC3)c2ccccc21	i	-0.3	2.4%
COCCCN1C(=O)C(=O)/C(=C(/O)c2ccc(OC)cc2)C1c1ccc(O)c(OC)c1 (centres undefined)	i	-1.1	-3.3%
Cc1oc(C)c(C(=O)O)c1COc1ccc(C(=O)O)cc1	i	-0.61	-5.7%
O=c1[nH]c(CSc2nnc(-c3ccncc3)n2Cc2ccco2)nc2ccccc12	i	-0.79	2.3%
CN1CCN(CCCNC(=O)C2CC(=O)N(C3CCCCC3)C2)CC1 (centres undefined)	i	-1	2.9%
O=C(CSc1n[nH]c(-c2ccccc2)n1)c1ccccc1	i	-0.8	-1.0%
COC(=O)n1c(SC)nc2ccccc21	i	0.5	2.6%
O=C(c1cc(-c2ccc(Cl)c(Cl)c2)on1)N1CCCCC1	i	1.6	-0.9%
Cn1c(=O)n(CC(=O)N2CCN(c3nnc(-c4ccccc4)c4ccccc34)CC2)c2ccccc21	i	-0.93	-6.1%
NC(=O)C1CCN(C2CC(=O)N(Cc3cccs3)C2=O)CC1 (centres undefined)	i	nt	-0.3%
COc1ccccc1CNc1cc(CSc2ccc(Cl)cc2)nc(C)n1	i	nt	3.1%
Cc1ccc(CS(=O)(=O)Cc2ccc(C(=O)NCc3ccccn3)o2)cc1	i	0.72	-2.9%
O=C(CN1CCOCC1)Nc1ccccc1C(=O)O	i	nt	-0.9%
Cc1ccc(OCC(O)Cn2c(NCCc3ccccc3)nc3c2c(=O)[nH]c(=O)n3C)cc1 (centres undefined)	i	-0.68	-2.1%
O=S(=O)(NCc1cccnc1)c1ccc(Br)s1	i	0.48	-2.1%
O=C(NCc1cccnc1)C1CCCN(S(=O)(=O)c2ccc(Br)cc2)C1 (centres undefined)	i	0.75	-2.3%
COc1cc2c(cc1OC)C(C(=O)Nc1cccc(C)n1)C(c1cccnc1)N(C)C2=O (centres undefined)	i	1.9	-1.9%
CCC(C)(C)n1nnnc1C(c1cc(OC)c(OC)c(OC)c1)N1CCN(c2ccccc2)CC1 (centres undefined)	i	0.17	-0.2%
Cc1cc(C)nc(NC2=NCC(=O)N2c2ccccc2)n1	i	0.33	-4.3%
CCOc1ccc(C(=O)NC(Cc2ccccc2)C(=O)OC)cc1 (centres undefined)	i	nt	2.7%
COC(=O)COn1c(-n2nc(C)cc2C)nc2ccccc2c1=O	i	nt	-1.7%
O=C(CC1NC2CCCCC2NC1=O)Nc1ccc2c(c1)OCO2 (centres undefined)	i	0.34	4.3%
COc1ccc(-c2c3c([nH]c(=S)c2C#N)CCC3)cc1	i	-0.47	-9.8%
CCOC(=O)C1(CCSC)NC(c2ccco2)C2C(=O)N(CC)C(=O)C21 (centres undefined)	i	-0.09	-1.4%
CCN(CC)C(=O)CSc1nnc(CNc2ccc(F)cc2)n1-c1ccccc1	i	nt	-2.1%
O=C(CCN1C(=O)C2C3C=CC(C3)C2C1=O)Nc1c(F)cccc1F (centres undefined)	i	-0.18	1.9%
c1coc(CNC2CCCCCCC2)c1	i	-0.81	-1.6%
CS(=O)(=O)c1ccc2nc(NC(=O)C3CCCCC3)sc2c1	i	-0.5	1.3%
Cc1ccc(N/C(N)=N/c2nc(CSc3ccc(C)cc3)cc(=O)[nH]2)cc1	i	nt	-3.2%
O=C(NCC1CCCO1)c1csc2c1CCCCC2 (centres undefined)	i	1.6	-0.1%
CCCCn1c(CN2CCN(c3ccc(F)cc3)CC2)nc2c1c(=O)n(C)c(=O)n2C	i	-0.18	4.3%
NS(=O)(=O)c1cc2c(cc1Cl)NC(CSCc1ccccc1)=NS2(=O)=O	i	0.02	0.1%
c1ccc2c(-c3nnc4n3CCCCC4)c[nH]c2c1	i	0.23	-5.3%
CC(C)N1C(=S)SC2CS(=O)(=O)C=C21 (centres undefined)	i	-0.35	0.3%
c1ccc(C(c2nnnn2C2CCCC2)N2CCCCCC2)nc1 (centres undefined)	i	-1.5	0.2%
CCOc1ccc(NC(=O)COC(=O)c2cccnc2)cc1	i	-0.95	0.3%
Cc1ccccc1OCc1nc(-c2ccc(NC(=O)c3ccc4c(c3)OCO4)cc2)no1	i	-1.6	-4.9%
CCOc1ccccc1-c1nc(-c2ccc(C)nc2OC)no1	i	-0.04	-50%
Cc1cccc(Nc2cnn(C34CC5CC(CC(CC(=O)O)(C5)C3)C4)c(=O)c2Cl)c1	i	nt	0.5%
COc1ccc(-n2nnc3c(=O)n(CC(=O)N4CCC(Cc5ccccc5)CC4)cnc32)cc1	i	-0.19	-1.9%

The results go on:
canonical_smiles	MT1-MMP promoter	WNV protease inh	Hsc70 ATP site
CC(=O)NCC(=O)NC(C(=O)Nc1ccc2c(c1)OCCO2)c1ccccc1 (centres undefined)	i	0.08	2.4%
O=c1c2ccccc2nc(-c2ccco2)n1Cc1ccccc1	i	0.45	-0.9%
Cc1c(C(=O)OC(C)C)sc(NC(=O)C2CCCO2)c1C(=O)OC(C)C (centres undefined)	i	nt	-1.6%
CCCCCC(=O)N1CC2(CC)CN(C(=O)CCCCC)CC(CC)(C1)C2=O	i	0.37	-1.8%
CCOc1ccc(N2C(=O)C3CCCN3C2=O)cc1 (centres undefined)	i	0.27	-3.5%
CCC(C)NC(=O)C1CCCN(S(=O)(=O)c2ccc(-n3cnnn3)cc2)C1 (centres undefined)	i	0.74	-1.7%
Cc1ccc2c(c1)cc(CN(Cc1cccs1)C(=O)c1ccco1)c1nnnn12	i	-1.4	2.1%
CCn1c(Cn2nnc(-c3ccccc3)n2)nnc1SCC(=O)Nc1ccc(C(C)=O)cc1	i	-0.59	1.7%
CN1CCN(c2c3c(c(C#N)c4nc5ccccc5n24)CCCC3)CC1	i	-0.74	0.0%
CN(C)CCNc1oc(COc2ccc(-c3ccccc3)cc2)nc1C#N	i	-0.69	-3.2%
CC(C)OCCCN1CN(S(=O)(=O)c2ccccc2)c2nc3ccccc3nc21	i	0.78	-6.4%
Cc1cc(C)c(NC(=O)CSc2nnc(-c3ccncc3)n2Cc2ccco2)c(C)c1	i	1	-8.1%
CC1=CCC(COC(=O)Nc2ccccc2)CC1 (centres undefined)	i	-1.4	0.9%
COC(=O)CCC(NC(=O)c1cc(-c2ccc3c(c2)OCCO3)oc1C)C(=O)OC (centres undefined)	i	-0.01	-4.7%
CCC(=O)N1c2ccc(S(=O)(=O)CCC(=O)NCc3ccc4c(c3)OCO4)cc2CC1C (centres undefined)	i	-0.04	-2.5%
CC(C)(C)C(=O)OCC1OC(n2cnc(C(N)=O)n2)C(O)C1O (centres undefined)	i	0.29	-8.2%
CN(C(=O)c1cc2nc(-c3ccco3)cc(C(F)(F)F)n2n1)C1CCCCC1	i	-1.5	-5.2%
O=C(O)CCc1ccc(-c2cccs2)n1CCC(=O)O	i	0.05	-5.0%
NC(=O)CN1CCN(c2ccccc2F)CC1	i	0.34	-0.7%
COc1ccc(OCc2ccc(C(=O)N3CCOCC3)cc2)cc1	i	nt	-0.2%
Cc1cccc(N2C(=O)SC(N(CC(=O)O)c3cccc(C)c3)C2=O)c1 (centres undefined)	i	-0.98	-1.2%
CCOC(=O)Cc1c(C)nc2c(-c3cccc(Br)c3)c[nH]n2c1=O	i	0.07	-0.6%
C=CCNC(=O)CN(c1ccc(F)cc1)S(=O)(=O)c1ccc(OC)cc1	i	-0.43	0.3%
CCOc1ccc2nc(C(C)O)[nH]c2c1 (centres undefined)	i	-2.7	-2.9%
Cc1ccc(C2C(C(=O)c3sc(C)nc3C)=C(O)C(=O)N2CCCN(C)C)o1 (centres undefined)	i	-0.14	-5.9%
CCn1c(SCC(=O)OCC(=O)N2c3ccccc3NC(=O)C2(C)C)nnc1-c1ccco1	i	0.64	-2.1%
Cc1cc(O)c(-c2n[nH]c3c2C(c2cccc(O)c2)N(Cc2cccnc2)C3=O)cc1Cl (centres undefined)	i	0.56	-4.6%
O=c1c2ccccc2n(Cc2ccc(F)cc2)c(=O)n1C1CCCC1	i	0.31	-3.8%
O=C(CCc1ccccc1)Nc1ccc(N2CCOCC2)cc1	i	0.14	-5.8%
CCOC(=O)CSC1=C(C#N)C(C)C2=C(CCCC2=O)N1 (centres undefined)	i	0.57	-3.7%

Another view of part of the listing above:
CCOc1ccc2nc(C(C)O)[nH]c2c1 (centres undefined)
- MT1-MMP promoter = i
- WNV protease inh = -2.7
- Hsc70 ATP site = -2.9%
CCOC(=O)CSC1=C(C#N)C(C)C2=C(CCCC2=O)N1 (centres undefined)
- MT1-MMP promoter = i
- WNV protease inh = 0.57
- Hsc70 ATP site = -3.7%

Grouped by structure: the compounds so far containing a COOH group
canonical_smiles	MT1-MMP promoter	WNV protease inh	Hsc70 ATP site
Cc1cc(C(C)(C)C)cc(S(=O)(=O)Nc2cccc(C(=O)O)c2)c1C	i	nt	-0.4%
Cc1oc(C)c(C(=O)O)c1COc1ccc(C(=O)O)cc1	i	-0.61	-5.7%
O=C(CN1CCOCC1)Nc1ccccc1C(=O)O	i	nt	-0.9%
Cc1cccc(Nc2cnn(C34CC5CC(CC(CC(=O)O)(C5)C3)C4)c(=O)c2Cl)c1	i	nt	0.5%
O=C(O)CCc1ccc(-c2cccs2)n1CCC(=O)O	i	0.05	-5.0%
Cc1cccc(N2C(=O)SC(N(CC(=O)O)c3cccc(C)c3)C2=O)c1 (centres undefined)	i	-0.98	-1.2%

The listing continues.
canonical_smiles	MT1-MMP promoter	WNV protease inh	Hsc70 ATP site
CC(C)(C)NS(=O)(=O)c1ccc(CCC(=O)N2CCOCC2)cc1	i	-0.23	-8.4%
CCCc1nc2sc3c(c2c(=O)n1NC(=O)CCC(=O)O)CCCC3	i	nt	2.7%
COc1ccc(-c2nn(-c3ccccc3)cc2/C=N/n2cnnc2)cc1OC	i	1	0.9%
Cc1nn(C)c(C)c1S(=O)(=O)N1CCC(C(=O)NCCC2=CCCCC2)CC1	i	-0.88	1.0%
CCOC(=O)c1c(C)[nH]c(C(=O)COC(=O)CN2C(=O)C3CCCCC3C2=O)c1C (centres undefined)	i	nt	-4.3%
CCCCC(=O)NCCc1ccc(OC)cc1	i	nt	0.3%
O/N=C/c1cn(-c2ccccc2)nc1-c1ccc2c(c1)OCCO2	i	nt	5.3%
Cc1c(S(=O)(=O)N2CCc3ccccc3C2)c(=O)n(C)c(=O)n1C	i	1.5	1.4%
N#Cc1ccccc1NC(=O)CSc1nnc(-c2ccc(F)cc2)n1-c1ccccc1	i	nt	-3.2%
O=c1[nH]c2cc3c(cc2cc1C(c1nnnn1C1CCCC1)N1CCCc2ccccc21)OCCO3 (centres undefined)	i	0.32	-2.6%
COc1ccc2[nH]c3c(NCc4ccco4)ncnc3c2c1	i	nt	3.6%
Cc1cc(C(=O)NCC(=O)O)c(C)o1	i	nt	0.8%
COCCn1nnnc1C(CC(C)C)N1CCN(c2cccc(OC)c2)CC1 (centres undefined)	i	0.81	-2.6%
CCCCC(=O)Nc1ccc2oc(-c3ccncc3)nc2c1	i	-1.2	3.6%
